Screens (PubChem BioAssay)
2A StopGo: High Throughput Screening for Foot and Mouth Disease Virus Antivirals | human cells with a luciferase reporter of 2A StopGo recoding; control for the full effect not named in the record | Potency, µM (series often up to 57.9 µM), inactives show at the highest dose signal change, negative = less light | 410,000 tested, 1.2% active | AID 1159524, 2015; active = well fitted falling curve with a large enough effect; inconclusive = small, poorly fitted or top-dose-only effect; inactive = no such curve, though single readings can be large or run the other way; tested in HEK293T cells; note: % is set by controls: 0 for no effect and ±100 for the full control effect; nearly all actives have a fitted effect of over 45% in size; luciferase light after 4 h
Lassa entry inh: qHTS for Inhibitors of binding or entry into cells for Lassa Virus; Potency, µM (series often up to 37.9 µM), for the others: at the highest dose activity change, negative = inhibition, hits mostly inhibitors; 300,000 tested, 1.2% active; Lassa virus pseudotype entry inhibition, cell reporter; control for the full effect not named in the record; active means well fitted inhibition curve with a large enough effect; inconclusive means small, poorly fitted or top-dose-only effect, or effect the other way; inactive means flat fitted curve, though single readings scatter; tested in HEK293 cells; note: % is set by controls: 0 for no effect and ±100 for the full control effect; nearly all actives have a fitted effect of over 50% in size; luciferase read-out
Cruzain inh noDet: qHTS Assay for Promiscuous and Specific Inhibitors of Cruzain (without detergent). Cruzipain (Trypanosoma cruzi), P25779. purified cruzain, Z-FR-AMC fluorescence, no detergent. Potency, µM, without a hit: max response, negative = inhibition, actives largely listed as inhibitors. 200,000 tested, 2.3% active. AID 1476, 2009;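 note: plate controls were enzyme without inhibitor for no effect and buffer without enzyme for full effect; nearly all actives have a fitted effect of over 40% in size; top concentration of the series not given in the record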
Target sequence (P25779 123-467 limits assumed): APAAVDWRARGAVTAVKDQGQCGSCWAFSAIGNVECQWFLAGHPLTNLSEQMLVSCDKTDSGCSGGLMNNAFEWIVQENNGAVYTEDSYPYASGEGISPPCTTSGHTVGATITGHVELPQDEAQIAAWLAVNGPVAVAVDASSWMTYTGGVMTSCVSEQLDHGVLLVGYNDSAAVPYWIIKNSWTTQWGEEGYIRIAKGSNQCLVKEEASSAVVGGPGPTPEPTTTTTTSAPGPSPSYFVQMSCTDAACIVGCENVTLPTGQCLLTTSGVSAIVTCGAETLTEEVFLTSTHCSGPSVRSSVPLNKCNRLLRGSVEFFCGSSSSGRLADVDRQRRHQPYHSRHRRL
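Purified cruzain at 1.5 nM, pre-incubated 15 min with compound at room temperature in 100 mM sodium acetate pH 5.5, 5 mM DTT, 0.00005% Triton X-100. Reaction started with 2 uM Z-FR-AMC; AMC fluorescence increase over 60 s gives rate.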
SARS PLpro yeast: qHTS of Yeast-based Assay for SARS-CoV PLP | S. cerevisiae expressing SARS-CoV PLpro, growth rescue; control for the full effect not named in the record | Potency, µM (highest dose often 32.9 µM), without a hit: at the highest dose activity, positive = growth rescue | 330,000 tested, 0.19% active | AID 485353, 2010; active means well fitted rising curve with a large enough effect; inconclusive means small, poorly fitted or top-dose-only effect; inactive means no such curve, though single readings can be large or run the other way; note: 0% is about no effect; nearly all actives have a fitted effect of over 55% in size; growth read by luminescence after 48 h
NS1 inh: qHTS Assay for Inhibitors of Influenza NS1 Protein Function | S. cerevisiae slowed by influenza A NS1, growth recovery by OD600 | Potency, µM (highest dose often 46.1 µM), inactives show at the top dose activity, positive = more growth | 270,000 tested, 0.4% active; active means well fitted rising curve with a large enough effect; inconclusive means small, poorly fitted or top-dose-only effect; inactive means no such curve, though single readings can be large or run the other way; note: nearly all actives have a fitted effect of over 50% in size
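In this qHTS, NS1 from influenza A is expressed in budding yeast, where it slows growth. Cells are switched from glucose to 2% galactose medium (pH 6.0, -URA), treated with compound, and growth recovery is read at OD600.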
Cruzain inh Det: qHTS Assay for Promiscuous and Specific Inhibitors of Cruzain (with detergent) | Cruzipain (Trypanosoma cruzi), P25779 | purified cruzain, Z-FR-AMC fluorescence, 0.01% Triton | Potency, µM, without a hit: max response, negative = inhibition, hits mostly inhibitors | 200,000 tested, 0.43% active;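 note: plate controls were neutral wells for no effect and buffer without enzyme for full effect; nearly all actives have a fitted effect of over 40% in size; top concentration of the series not given in the record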
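In this qHTS format, compounds are incubated with 1.5 nM cruzain for 15 min at room temperature before 2 uM Z-FR-AMC is added. Release of AMC is followed at 360/450 nm, and progress is taken as the 60 s fluorescence difference.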
RE007 growth inh: qHTS Assay for Inhibitors of the HIV-1 protein Vpr; S. pombe RE007 Vpr strain, BacTiter-Glo ATP luminescence, 24 h; control for the full effect not named in the record; Potency, µM (highest dose often 92.2 µM), without a hit: at the top dose activity change, negative = less growth; 360,000 tested, 0.21% active; active = well fitted falling curve with a large enough effect; inconclusive = small, poorly fitted or top-dose-only effect; inactive = no such curve, though single readings can be large or run the other way;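 note: % is set by controls: 0 for no effect and ±100 for the full control effect; nearly all actives have a fitted effect of over 50% in size; the assay follows cell death caused by Vpr and the record does not say whether a fall means rescue or toxicity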
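Fission yeast RE007 carrying one integrated HIV-1 vpr copy, seeded at OD 0.01 in PMG+AL medium with 23 nL pinned compound. Grown 24 h at 30 degrees; viability read by BacTiter-Glo luminescence after 5 min.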
Marburg entry inh: qHTS for inhibitors of binding or entry into cells for Marburg Virus. Marburg virus pseudotyped entry inhibition, cell reporter; control for the full effect not named in the record; about a third of the inactives were read at about 46 µM. Potency, µM (series often up to 37.8 µM), for inactives: at the highest dose activity change, negative = inhibition, usual class: inhibitors. 300,000 tested, 1.8% active; active = well fitted inhibition curve with a large enough effect; inconclusive = small, poorly fitted or top-dose-only effect, or effect the other way; inactive = flat fitted curve, though single readings scatter; tested in HEK293 cells; about a fifth of its hits are not listed in these tables; note: % is set by controls: 0 for no effect and ±100 for the full control effect; luciferase read-out
Active calls of the source: *; ? = inconclusive; nt = no result given; & = joins results of further samples; [ ] = remark or other dose. Unless noted, calls come from the whole dose curve; as a rule, active = well fitted curve in the direction sought with a large enough effect; inconclusive = small, poorly fitted or top-dose-only effect, or another doubt; inactive = no such curve, though single readings can be large; an effect the other way counts as inactive or inconclusive. Potency is the fitted concentration of half-maximal effect. Random draw from the library (roughly 4.5% active in at least one column).

structure,2A StopGo,Lassa entry inh,Cruzain inh noDet,SARS PLpro yeast,NS1 inh,Cruzain inh Det,RE007 growth inh,Marburg entry inh
O=C(c1ccc2c(c1)OCO2)N(Cc1ccco1)C1(C(=O)NC2CCCCC2)CCCCC1,-20.1%,?,-2.9%,-11.7%,-13.7%,-1.1%,-18.4%,?
CCCC(=O)N1CCN(c2nc(CC(C)C)c3c(c2C#N)CCC3)CC1,?,12.6µM*,8.2%,-10.0%,-73.0%,-6.6%,22.0%,?
C=CCNC(=O)c1cc2c(C(F)(F)F)nn(C)c2s1,-20.0%,-13.6%,17.0%,-6.8%,?,0.1%,-18.7%,-25.1%
COc1ccc2c(c1OC)C(=O)OC2Nc1ccc(S(=O)(=O)N=C(N)N)cc1 (stereo not given),-20.9%,nt,nt,-4.4%,2.2%,nt,7.8%,nt
CN1CCC(N(C)C(=O)NC2CCCCC2)CC1,17.4%,10.5%,nt,0.2%,7.7%,nt,-7.8%,?
CNC(=S)SCCOc1ccc(C)cc1,14.4%,6.5%,7.2%,29.0%,4.3%,-7.2%,-9.7%,7.2%
O=C(Nc1ccc([N+](=O)[O-])cc1)OCCc1ccccn1,23.0%,nt,nt,1.1%,-6.1%,nt,-0.7%,nt
C=CSc1sc(Cl)c(N(C)C)c1[N+](=O)[O-],8.2%,29.6%[46.1 µM],nt,0.3%,1.0%,nt,4.3%,-1.7%
COc1ccc(N2CCN(C(=O)C34CCC(C)(C(=O)C3)C4(C)C)CC2)cc1 (stereo not given),-8.7%,-8.0%,10.5%,0.3%,5.4%,-0.4%,-11.6%,-2.0%
CCN(CC(=O)Nc1c(F)cccc1F)C(=O)c1ccc(C(=O)c2ccccc2)cc1,-20.0%,?,nt,-10.7%,nt,nt,-8.0%,-6.6%
COc1ccc(C)cc1NC1=C(Cl)C(=O)N(C2CCCCC2)C1=O,-24.3%,-8.0%,-2.4%,-21.1%,3.3%,1.0%,-18.7%,?
NCCNS(=O)(=O)c1cccc2cnccc12,-4.9%&-4.6%,nt,1.7%&3.4%,nt,-6.2%,-1.9%&-1.4%,nt,?
CCOC(=O)C1(Cc2ccccc2)CCCN(Cc2cccc(C(C)=O)c2)C1 (stereo not given),-24.6%,5.8%[46.1 µM],nt,-0.1%,6.5%,nt,-7.0%,?
Cn1c(N)nc2nc(CCc3ccccc3)c(=O)[nH]c2c1=O,-5.6%,4.3%[46.1 µM],nt,3.1%,-8.3%,nt,-14.1%,6.6%[46.1 µM]
CCCCn1c(CNC(=O)C(C)(C)C)nc2ccccc21,-29.3%,nt,-5.5%,2.7%,-10.0%,-2.8%,-2.4%,nt
COc1ccc2c(C)c(CCC(=O)NCc3ccc(OC)c(OC)c3)c(=O)oc2c1,-27.3%,2.1%[46.1 µM],?,nt,nt,-0.5%,nt,16.7%[46.1 µM]
Cc1ccc(OC(C)C(=O)Nc2ccncc2)cc1C (stereo not given),?,nt,nt,-6.4%,-39.9%,nt,-0.9%,nt
O=C(O)c1cc(Cl)c(Cl)cc1C(=O)Nc1cccc2cccnc12,-13.7%,-9.6%,-2.7%,11.5%,12.8%,-0.5%,4.4%,?
Cn1c(=O)c(C(=O)NNC(=O)c2ccccc2Br)c(O)c2ccccc21,-2.9%,-20.9%[46.1 µM],nt,1.3%,-104.0%,nt,?,2.7%[46.1 µM]
CCC(C)n1c(SCc2ccc([N+](=O)[O-])cc2)nc2ccsc2c1=O (stereo not given),?,?,3.3%,-4.1%,4.9%,-3.0%,-3.0%,12.6µM*
Cc1ccc(C(=O)NC(C#N)=C(Cl)Cl)cc1,?,?,nt,-4.9%,-76.3%,nt,9.7%,?
CC(C)(C)c1cc(C2COC(=O)COCCOCC(=O)OCCOCCO2)cc(C(C)(C)C)c1O (stereo not given),-13.3%,17.8%,nt,nt,nt,nt,12.6%,?
O=C(CN1C(=O)c2ccccc2C1=O)NCc1ccncc1,-17.2%,-7.3%,3.5%,-3.5%,5.7%,-2.7%,10.2%,-1.5%&-1.5%
CCN(Cc1nc(-c2ccc(C)cc2)no1)C(=O)c1ccco1,39.5%[activator],?,nt,-4.7%,12.1%,nt,19.9%,17.7%[46.1 µM]
O=[N+]([O-])c1ccc(C[n+]2cc(-c3ccccc3)n3c2CCCCC3)cc1,9.2%,10.7%,nt,-1.4%,nt,nt,-17.1%,-11.9%[46.1 µM]
CCOC(=O)c1ccc(NC(=O)c2c(O)c3ccccc3n(C)c2=O)cc1,nt,nt,1.4%,-8.7%,-9.9%,1.7%,nt,-7.8%
C#CCOCCOCCOCCNc1nc(N2CCN(C(=O)Cn3cc(CCCN=C(N)N)nn3)CC2)nc(N2CCN(C(=O)Cn3cc(CCCN=C(N)N)nn3)CC2)n1,nt,1.9%,0.2%,11.8%,11.6%,-4.8%,nt,9.5%
O=C(COC(=O)c1ccccc1O)Nc1ncc(Cl)cc1Cl,-7.4%,1.8%[46.1 µM],nt,-1.6%,3.7%,nt,?,-7.1%[46.1 µM]
OCCC1CN(Cc2cn[nH]c2C2CCCCC2)CCN1C1CCCC1 (stereo not given),0.1%,3.5%[46.1 µM],nt,0.7%,0.2%,nt,-19.2%,-10.1%[46.1 µM]
O=C(Cc1ccccc1[N+](=O)[O-])Nc1ccc2c(c1)OCO2,21.7%,-0.7%[46.1 µM],nt,-0.5%,-12.5%,nt,-7.7%,?

Nothing new here: an excerpt of the list.
structure,2A StopGo,Lassa entry inh,Cruzain inh noDet,SARS PLpro yeast,NS1 inh,Cruzain inh Det,RE007 growth inh,Marburg entry inh
NCCNS(=O)(=O)c1cccc2cnccc12,-4.9%&-4.6%,nt,1.7%&3.4%,nt,-6.2%,-1.9%&-1.4%,nt,?
CCOC(=O)C1(Cc2ccccc2)CCCN(Cc2cccc(C(C)=O)c2)C1 (stereo not given),-24.6%,5.8%[46.1 µM],nt,-0.1%,6.5%,nt,-7.0%,?
Cn1c(N)nc2nc(CCc3ccccc3)c(=O)[nH]c2c1=O,-5.6%,4.3%[46.1 µM],nt,3.1%,-8.3%,nt,-14.1%,6.6%[46.1 µM]

Going on with the list:
structure,2A StopGo,Lassa entry inh,Cruzain inh noDet,SARS PLpro yeast,NS1 inh,Cruzain inh Det,RE007 growth inh,Marburg entry inh
CC(C)(C)n1nnnc1CN(Cc1ccco1)Cc1cc2cc3c(cc2[nH]c1=O)OCO3,0.0%,-12.7%,-13.7%,-1.3%,3.0%,2.3%,7.0%,-2.6%
CCC(=O)Nc1ccc(OCC2CCCO2)cc1 (stereo not given),29.0%,nt,nt,?,28.0%,nt,17.1%,nt
COc1ccccc1NC(=O)c1cc(S(=O)(=O)N2CCCC2)cn1C,9.1%,nt,nt,9.6%,-1.1%,nt,4.2%,nt
CCOc1ccc(N(CC(=O)NCCC2=CCCCC2)S(=O)(=O)c2ccccc2)cc1,?,-6.5%,nt,1.1%,-1.9%,nt,-10.5%,?
CCOc1ccc(CNC(=O)CN2C(=O)C(c3ccccc3)Oc3cccnc32)cc1 (stereo not given),-14.9%,nt,nt,-7.5%,1.4%,nt,-1.6%,nt
CC(=O)N/C(=C/c1ccccc1)C(=O)N1CCCCC1,7.8%,30.6%,-1.9%,-8.7%,0.7%,0.6%,-6.3%,5.5%
COc1ccc(/C=N/Nc2ccccc2C(=O)O)cc1Cn1cc([N+](=O)[O-])cn1,23.5%,-1.3%,nt,-0.3%,3.6%,nt,-15.6%,3.7%[46.1 µM]
O=C(/C=C/c1ccc2c(c1)OCO2)N1CCN(c2ccccc2F)CC1,0.0%,3.9%,-8.7%,-13.2%,-6.9%,-6.3%,6.8%,-2.0%
COc1ccc(S(=O)(=O)NCCC(=O)NC2CCCCC2C)cc1[N+](=O)[O-] (stereo not given),2.5%,-5.3%[46.1 µM],nt,5.7%,nt,nt,6.0%,-2.1%[46.1 µM]
Cc1cc(C)n2cc(CSc3nnc(SCc4cn5c(C)cc(C)nc5n4)s3)nc2n1,nt,nt,-6.8%,-9.7%,8.3%,1.6%,nt,nt
C=CCC1c2cccc(C(=O)OC)c2C(=O)N1c1ccccc1 (stereo not given),-14.1%,7.1%,-13.0%,1.9%,6.6%,5.4%,14.4%,-4.8%
Cc1nc(CCNC(=O)CC2C(=O)NCCN2CC(C)C)nc2c1CCC2 (stereo not given),-19.5%,5.1%,nt,6.7%,-1.7%,nt,0.9%,1.4%
Cc1cccc(N2CCN(C(=O)c3sc4nc5n(c(=O)c4c3C)CCC5)CC2C)c1 (stereo not given),?,5.9%[46.1 µM],22.2%,nt,nt,-4.4%,nt,nt
COc1ccc(CNC(=O)C2CC(c3ccccc3C(F)(F)F)=NO2)cc1 (stereo not given),-6.5%,nt,nt,-3.1%,-3.6%,nt,2.5%,nt
O=C(NCc1ccncc1)/C(=N/O)c1ccccc1,-2.0%,?,-6.7%,3.3%,0.4%,2.1%,19.5%,-0.4%
C=CCN=C1SC(C)C(=O)N1S(=O)(=O)c1ccccc1 (stereo not given),3.5%,3.3%,-1.8%,3.9%,?,3.4%,6.5%,-4.6%
COCCSc1ccccc1C(=O)N1CCN(Cc2ccccc2)CC1,18.6%,nt,nt,1.5%,-6.1%,nt,-1.6%,nt
CCC(C)N1CC23C=CC(O2)C(C(=O)OCc2ccccc2)C3C1=O (stereo not given),23.5%,-11.0%,-5.3%,8.9%,-0.7%,-1.5%,10.6%,12.4%
